VDR inh: vitamin D3 receptor (human) inhibition. VDR-SRC2-3 peptide fluorescence polarization, 2 h. Potency, µM, without a hit: max response, negative = inhibition, most hits filed as inhibitors. 400,000 compounds, 0.93% hits. AID 504847; active means well fitted inhibition curve with a large enough effect; inconclusive means small, poorly fitted or top-dose-only effect, or another doubt; inactive means no such curve, though single readings can be large or run the other way; further: series mostly up to about 120 µM
Target sequence (P11473 whole entry, looked up): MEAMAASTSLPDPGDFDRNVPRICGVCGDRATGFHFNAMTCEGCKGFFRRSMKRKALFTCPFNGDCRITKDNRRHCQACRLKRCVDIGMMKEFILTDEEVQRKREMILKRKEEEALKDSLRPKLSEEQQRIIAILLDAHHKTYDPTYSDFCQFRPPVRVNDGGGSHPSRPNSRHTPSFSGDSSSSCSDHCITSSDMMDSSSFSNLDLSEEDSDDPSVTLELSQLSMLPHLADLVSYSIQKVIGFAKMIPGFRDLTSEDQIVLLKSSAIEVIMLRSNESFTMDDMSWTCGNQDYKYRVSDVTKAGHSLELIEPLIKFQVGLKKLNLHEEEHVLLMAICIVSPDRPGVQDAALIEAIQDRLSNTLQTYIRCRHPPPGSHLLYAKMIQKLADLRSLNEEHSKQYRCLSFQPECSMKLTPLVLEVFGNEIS
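Reagent solutions, kept cold and dark, are dispensed first; compounds are then pinned in at 23 nl, plates briefly spun, and incubated 2 h at ambient temperature. Inhibition of VDR–SRC2-3 peptide binding is read by fluorescence polarization.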
The depositor's hits bear a star; ? = inconclusive; & = joins results of further samples; [ ] = remark or other dose. On the % scale 0 is the no-effect control and ±100 the full control effect; potency means the concentration at half of the fitted maximal effect. An excerpt (hit frequency here may not be typical).

VDR inh,Molecule
1.0%,COc1ccc(C(=O)Nc2ccnn2C2CCN(C(C)CSC)CC2)cc1 (configuration not stated)
-16.3%,O=C(NCc1ccc2c(c1)OCO2)c1ccncc1
18.3%,COc1cc(C(=O)NC(=S)N(C)Cc2ccccc2)cc(OC)c1OC
6.6%,COc1ccccc1-c1nc(SCC(=O)c2ccccc2)n[nH]1
-0.5%,CCC1(c2cccc(Cl)c2)NC(=O)N(Cc2cc(C(=O)OC)c(C)o2)C1=O (configuration not stated)
-5.1%,COc1cc2[nH]c3c(=O)n(CCN(C(C)C)C(C)C)cnc3c2cc1OC
50.8%[activator],CCC(Sc1nc(C)cc(=O)[nH]1)C(=O)Nc1nnc(C)s1 (configuration not stated)
3.6%,CCc1ccc(NC(=O)C(CC)Sc2nc3ccsc3c(=O)n2CCC(=O)O)cc1 (configuration not stated)
19.6%,C/C(N)=C(/C#N)C(=O)COC(=O)CCCNC(=O)c1ccc(Cl)cc1
-28.6%,Nc1nc(-c2ccc3c(c2)CCCC3)c(CC(=O)O)s1
-7.4%,CC(=O)c1cccc(NC(=O)C2CCN(S(=O)(=O)c3ccc(F)cc3)CC2)c1
-22.0%,S=c1[nH]nc(-c2ccco2)n1-c1ccc(Br)cc1
-8.8%,O=C(Nc1nc(-c2ccccn2)cs1)c1ccco1
1.7%,Cc1ccc(C)c(C(=O)OCC(=O)Nc2ccc(N3CCOCC3)cc2)c1
-10.1%,O=C(c1ccco1)N1CCN(CCCCOc2ccc(F)cc2)CC1
?,Oc1ccc(CNc2ccccc2F)c2cccnc12
-0.8%,COc1ccc(NC(=O)CN(C)C(=O)CSCc2c(C)noc2C)cc1
-14.6%,CC(C)(C)OC(=O)N1CCC(CC2CC(c3ccncc3)=NO2)(C(=O)O)CC1 (configuration not stated)
-18.0%,COc1ccc(C(=O)Nc2ccc(O)c3ccccc23)cc1
2.9%,COCCCNS(=O)(=O)c1ccc(S(=O)(=O)N2CCCC2)cc1

In a second layout: results already given
CCC1(c2cccc(Cl)c2)NC(=O)N(Cc2cc(C(=O)OC)c(C)o2)C1=O (configuration not stated)
  VDR inh: -0.5%
COc1cc2[nH]c3c(=O)n(CCN(C(C)C)C(C)C)cnc3c2cc1OC
  VDR inh: -5.1%
CCC(Sc1nc(C)cc(=O)[nH]1)C(=O)Nc1nnc(C)s1 (configuration not stated)
  VDR inh: 50.8%[activator]

Further compounds.
VDR inh,Molecule
-21.4%,CC(=O)NC1=C(N(C)C2CCS(=O)(=O)C2)C(=O)c2ccccc2C1=O (configuration not stated)
-1.4%,COc1ccc(C2=[N+]([O-])C(C)(C)N(O)C2(C)C)cc1
14.4%,Cc1nc(-c2ccc(C)c(S(=O)(=O)N3CCC(C(=O)Nc4ccc(Cl)cc4)CC3)c2)no1
-12.6%,C/C(CC(=O)Nc1ccc(Cl)c(Cl)c1)=N\NC(=O)C(=O)N1CCCCC1
-21.0%,COc1ccc2oc(=O)cc(-c3cc4ccccc4o3)c2c1
-11.0%,Cc1ccc(C(=O)NCC(=O)N2CCCN(C)CC2)cc1C
9.0%,COc1ccc(N2CC(C(=O)N3CCN(C)CC3)CC2=O)cc1 (configuration not stated)
-12.6%,O=C(CO)N/N=C/c1cccc(Cl)c1Cl
-4.8%,CN(C=O)c1ccc(CSc2ccccc2)cc1
-5.0%,O=C(NCCCCc1ccccc1)C1CC(c2ccc(C(F)(F)F)cc2)=NO1 (configuration not stated)
-9.3%,Cc1cc(Cl)ccc1OCC(=O)NCC(c1cccs1)N1CCOCC1 (configuration not stated)
-5.2%,CCN(C(=O)CSc1nnc2ccccn12)c1c(N)n(Cc2ccccc2)c(=O)[nH]c1=O
1.8%,O=C(Nc1nnc(SCc2ccccc2)s1)c1cc2c(s1)CCCC2
-3.2%,NC(=O)C1CCCN(C(=O)CN2C(=O)NC(c3ccccc3)(c3ccccc3)C2=O)C1 (configuration not stated)
-7.1%,CCOC(=O)c1cnn2c(C(F)F)cc(C3CC3)nc12
-7.5%,N[C@H]1C(O)O[C@H](CO)[C@@H](O)[C@@H]1O (some centres not stated)
-21.8%,COCc1cc(C)nc(SCc2ccccc2Cl)c1C#N
-17.4%,Cc1ccc(C(=O)COC(=O)CCC(=O)Nc2ccc(Oc3cc(C)ccc3C(C)C)cc2)cc1
-3.7%,COc1ccc(-c2cc(C(=O)N3CCN(c4cccc(C)c4C)CC3)c3ccccc3n2)cc1OC
82.6%[activator],CCOc1ccccc1OCC(=O)O
-3.1%,O=S(=O)(/N=C(/NS(=O)(=O)c1ccccc1)c1ccccc1)c1ccccc1
-16.9%,Cc1c(Br)c([N+](=O)[O-])nn1CCCC(=O)Nc1sc2c(c1C(N)=O)CCC(C)C2 (configuration not stated)
-4.9%,O=[N+]([O-])c1ccc(N2CCCCCC2)c(S(=O)(=O)N2CCCCC2)c1
-0.6%,CCCCNC(=S)NCc1ccc2[nH]c(C)cc2c1
6.9%,CC(C)(C)c1nc2ccccc2c2nnc(SCC(=O)Nc3nc4ccccc4s3)n12
6.5%,Cc1ccccc1CCNC(=O)c1cc2cc(S(=O)(=O)N3CCCCC3)ccc2n1C
?,O=C(O)CCc1ccc(-c2ccc(Cl)cc2)o1
-25.4%,C/C(=N\NC(=O)c1ccn(C)n1)c1cccc(NC(=O)c2ccc(C)s2)c1
-3.4%,CCOC(=O)C1C(=O)NC(c2ccccc2)=NC1c1ccc(Cl)cc1 (configuration not stated)
3.5%&-16.6%,Cc1ccc(-c2nn(CCC(N)=O)c(=O)c3ccccc23)cc1
-19.7%,Nc1cc(Cl)ccc1Oc1ccc(Cl)cc1
-6.0%,CCO/N=C1\C(=O)N(c2ccccc2)c2ccccc21
-0.9%,CC1CCN(S(=O)(=O)c2nnc(NC(=O)c3ccccc3Br)s2)CC1
35.5µM*,COc1ccc(OCc2n[nH]c(=S)n2N)cc1
0.2%,CCNC(=O)CN1c2cccc3cccc(c23)S1(=O)=O
9.8%,COC(=O)C1=C(N)c2ccccc2C1(C#N)c1ccccc1 (configuration not stated)
16.4%,Cc1c(C(=O)Nc2ccccc2F)sc2ncn(CC(=O)N3CCCCC3)c(=O)c12
-20.3%,COc1ccccc1OCCCC(=O)Nc1nnc(C2CCCO2)s1 (configuration not stated)
?,O=C(O)c1cc(-c2ccc(-c3ccc(F)cc3)o2)nc2ccccc12
-0.5%,CSc1cccc(NC(=S)NC(=O)CCc2ccccc2)c1
4.4%,CCc1ccc(-c2ccc3nnc(SCC(=O)Nc4cccc(C(C)=O)c4)n3n2)cc1
-22.4%,Cc1ccc(-n2[nH]c(C)c(C=Nc3ccc(S(=O)(=O)Nc4nccs4)cc3)c2=O)cc1C
-9.3%,Cc1cccc(C(=O)N2CCNC(=O)C2CC(=O)Nc2cccc(Cl)c2)c1 (configuration not stated)
11.7%,CC(C)N(C(=O)CSc1ncnc2sc(-c3ccccc3)cc12)C(C)C
-4.2%,COc1ccc(-c2csc(-c3[nH]cnc3N)n2)cc1
-10.2%,O=C(c1ccc(F)cc1)C1CCN(C(=O)c2ccccc2)CC1
23.4%,COc1cccc(N2CCN(C(=O)c3ccc(CS(=O)Cc4ccccc4Cl)o3)CC2)c1 (configuration not stated)
3.7%,CCn1c(SCC(=O)Nc2cc(C)on2)nc2sc3c(c2c1=O)CCCC3
0.7%,CC1CCCN(c2ccc(F)cc2N)C1 (configuration not stated)
-6.9%,CCN(CC)C(=O)N1CCC(NC(=O)c2ccc(C(C)(C)C)cc2)CC1
3.8%,CC(NC(=O)c1ccc(Cl)cc1)C(=O)NC1=NCCS1 (configuration not stated)
2.2%,Cn1cc(Br)c(C(=O)NC2CCCCC2)n1
-28.0%,O=[N+]([O-])c1cc(C=NN2CCCCCC2)ccc1Cl
?,CCOC(=O)c1c(C)oc2c1c(C(c1ccncc1)N1CCOCC1)c(O)c1ccccc12 (configuration not stated)
-2.1%,O=c1c(-c2ccccc2)nc2cnc(Nc3ccccc3)nc2n1C[C@H]1CCCO1
5.3%,CCOc1ccccc1NC(=O)Cn1c(=O)oc2cc(S(=O)(=O)NCc3ccccc3)ccc21
-6.6%,O=C(CCc1ccc(S(=O)(=O)N2CCOCC2)cc1)N/N=C/c1ccc(F)cc1F
9.4%,O=C1CSc2ccccc2N1
9.7%,COc1ccc(-c2cc(C(=O)Nc3cccc(O)c3)on2)cc1OC
-5.9%,COc1ccccc1C(=O)OCC#CCSc1nnc(-c2cccc3ccccc23)o1

Overlap with the part before: 2 entries, then new ones.
VDR inh,Molecule
9.7%,COc1ccc(-c2cc(C(=O)Nc3cccc(O)c3)on2)cc1OC
-5.9%,COc1ccccc1C(=O)OCC#CCSc1nnc(-c2cccc3ccccc23)o1
12.5%,O=C(C1CC(=O)N(c2ccccc2)C1)N1CCN(c2ccccc2)CC1 (configuration not stated)
10.6%,CC1SC(C)C(=O)N(CC(=O)NC2CCCCC2)C1=O (configuration not stated)
-5.5%,COc1ccccc1OC(C)C(=O)N1CC(=O)Nc2ccccc21 (configuration not stated)
-15.6%,COc1ccc(CCNCCN2CCOCC2)cc1
-22.0%,C=CCNC(=O)/C(C#N)=C/c1ccc2c(c1)OCCO2
9.9%,O=c1c(-c2cc(-c3ccc(F)cc3)nc3c2COc2ccc(Cl)cc2-3)coc2ccc(F)cc12
-13.5%,Cc1cc(C)c(S(=O)(=O)N2CCOCC2)c(C)c1N(C)S(=O)(=O)c1ccccc1
17.7%,NC(=O)c1ncc(C(F)(F)F)cc1Oc1cccc(C(F)(F)F)c1
11.1%,CC(=O)NS(=O)(=O)c1ccc(NC(=O)CSc2ccc(C)cc2)cc1
-3.2%,CSc1nsc(SC)c1C(=O)NCCNS(=O)(=O)c1ccc(C)cc1
-9.3%,COCCCn1c(SCC(=O)Nc2cccc(C)n2)nnc1-c1ccco1
-8.2%&12.7%,CCN(CC)S(=O)(=O)c1ccc2[nH]cc(C(=O)NCCc3ccccc3)c(=O)c2c1
-15.4%,COC(=O)C1=NN(C(=O)c2ccc(C)cc2)C(O)(c2ccc(Cl)cc2)C1 (configuration not stated)
20.0%,Cn1c2c(c(=O)n(C)c1=O)CN(Cc1ccc3c(c1)OCO3)CN2
?,COc1ccccc1/C=C/C(=O)Nc1ccc2c(c1)CCC2
89.1µM*,COC(=O)[C@@]1(Cc2ccc(OC)cc2)[C@@H]2C(=CC(=O)[C@H]2CC(=O)C(=O)N2CCCC2)CN1C(=O)c1ccccc1
7.5%,CC(C)(C)NNC(=S)Nc1cccc(C(F)(F)F)c1
12.4%,CCc1sc(C(=O)NCc2cc(C)n(C)n2)cc1Br
4.2%,CN(C(=O)CN1C(=O)/C(=C/c2ccccc2Cl)SC1=S)C1CCS(=O)(=O)C1 (configuration not stated)
-13.8%,O=S(=O)(c1ccc(Cl)cc1)c1cc(O)ccc1O
-22.4%,C=C[C@@]1(C)CCC(/C(C)=C/C=C/C(C)(C)O)C[C@@H]1C(=C)C (some centres not stated)
3.3%,Cc1ccc(C)c(N2CCN(c3nc4ccc(Cl)cc4n4cnnc34)CC2)c1
-9.7%,CCOC(=O)CC(=O)CSc1nc2ccc(C)cc2cc1C#N
-3.5%,C=CCN(CC=C)S(=O)(=O)c1ccc2nc(NC(=O)C3CCCO3)sc2c1 (configuration not stated)
-2.9%,O=C1CCC2CCCCC2(O)O1 (configuration not stated)
-15.1%,CC(Sc1nc(-c2ccccc2)cs1)C(=O)Nc1ccc(Cl)cn1 (configuration not stated)
3.1%,COc1ccc(OC)c(CCNC(=O)CCn2c(=O)c3cccn3c3cccnc32)c1
2.4%,CCN(C(=O)C12CC3CC(CC(C3)C1)C2)C1CCS(=O)(=O)C1 (configuration not stated)
-5.7%,COC(=O)N1CCC2(CCN(Cc3ccc(C#N)cc3)CC2)CC1
?,S=C(Nc1ccc(-c2nc3ccccc3[nH]2)cc1)Nc1cccnc1
?,COc1ccccc1NS(=O)(=O)c1cc(NC(=O)C2CCC2)ccc1N1CCCCC1
-14.8%,Clc1ccc(-n2nnc(-c3cccnc3Cl)n2)cn1
1.9%,COc1ncc2nc(-c3ccc(F)cc3)c(=O)n(Cc3ccc(F)cc3)c2n1
?,CCOC(=O)Cn1c(=O)cc(C)c2ccccc21
-3.8%,COc1ccc(-c2csc(NC(=O)Cc3cc(OC)c(OC)c(OC)c3)n2)cc1OC
-12.2%,CCCCOC(=O)CSc1nnc(-c2ccc(Cl)cc2Cl)o1
4.0%,Cc1ccc(OCc2nc(C#N)c(N3CCCCC3)o2)cc1
-11.6%,c1ccc(Nc2ncnc3ccc(-c4cccnc4)cc23)cc1
-17.2%,Cc1nc2c(c(C)nn2C(C)(C)C)c(C)c1CCC(=O)Nc1ccc(Br)cc1Br
-3.7%,CCOC(=O)NC(Nc1sc2c(c1C(N)=O)CCCC2)(C(=O)OCC)C(F)(F)F (configuration not stated)

Some of these compounds in order of their number in VDR inh, ascending:
SMILES,VDR inh
Cc1ccc(C(=O)COC(=O)CCC(=O)Nc2ccc(Oc3cc(C)ccc3C(C)C)cc2)cc1,-17.4%
CCN(CC)C(=O)N1CCC(NC(=O)c2ccc(C(C)(C)C)cc2)CC1,-6.9%
NC(=O)C1CCCN(C(=O)CN2C(=O)NC(c3ccccc3)(c3ccccc3)C2=O)C1 (configuration not stated),-3.2%

New compounds follow.
VDR inh,Molecule
-4.7%,O=C(NCc1ccc(F)cc1)C1CC(=O)N(CCc2ccccc2)C1 (configuration not stated)
9.1%,Cc1cccc(NC(=O)CNC(=O)c2cc(C3CC3)nn2-c2ccccc2)c1C
-15.1%,O=C1c2ccccc2S(=O)(=O)c2cc(C(=O)N(c3ccccn3)c3ccccn3)ccc21
-14.3%,Cc1ccc(S(=O)(=O)N2CCN(c3nc(-c4cccs4)nc4nc[nH]c34)CC2)cc1
-14.2%,COc1ccc(-c2nc(C#N)c(NCc3ccco3)o2)cc1
